Screens (PubChem BioAssay)
Biofilm kill mix = mixtures killing C. albicans biofilm; C. albicans biofilm persisters + clotrimazole, fluorescence viability; primary screen in compound mixtures of four per well; inhibition, % at 7.6 µM; actives 0.02% (n = 120,000); AID 1242;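 active means inhibition above 30.3% in the primary screen of four-compound pools, then above 30% when the compound was retested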;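 further: compounds exposed to preformed 24 h biofilms for 48 h; the number belongs to the whole pool; some results filed as inactive read as strong as hits; inactives centre near 12; 0% = biofilm with clotrimazole alone and 100% = kill control; retested singly at about 60 µM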
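Incubation: 24 h biofilm formation, then 48 h compound exposure, 37 °C | Material: C. albicans biofilms | Buffer or medium: RPMI/MOPS medium, pH 7.0 | Measured by: 2-h Alamar Blue fluorescence, 535/590 nm excitation/emission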
An asterisk follows results filed as active.

| canonical_smiles | Biofilm kill mix |
| --- | --- |
| C/C(N)=C(/C#N)C(=O)CSc1nc2ccccc2c(=O)n1-c1ccc(C)cc1 | 21.2 |
| COc1ccc(-c2c(C)sc(NC(=O)c3ccnn3C)c2C#N)cc1 | 10.7 |
| CC(=O)Nc1cccc(OCc2cnc(Cl)s2)c1 | -5.5 |
| CCOC(=O)Cn1c2ccccc2c2nc(C)sc21 | 19.8 |
| COc1ccc(F)cc1C(=O)C1CCCN(Cc2ccc3c(c2)OCCO3)C1 (centres undefined) | 15.2 |
| CCOc1ccccc1CN1CCN(Cc2csc(C(C)=O)c2)CC1CCO (centres undefined) | 10.1 |
| COC(=O)c1sc(-c2ccccc2)cc1NC(=O)c1ccc(F)cc1 | 16.7 |
| CNC(=S)N(CCc1ccc(OC)c(OC)c1)C1CC(=O)N(c2ccccc2)C1=O (centres undefined) | 16.1 |
| C=CCOc1cccc(CNn2nnnc2N)c1 | 17.0 |
| CC(=O)c1sc(N/N=C/c2ccc(C(C)C)cc2)nc1C | 4.8 |
| COc1cc2nc(CN(C)Cc3ccc(OC)c(OC)c3OC)[nH]c(=O)c2cc1OC | -1.9 |
| CCC1CCCCN1S(=O)(=O)Cc1ccccc1Cl (centres undefined) | 3.2 |
| Nc1ccc(Br)cc1-c1nc2ccccc2[nH]c1=O | 11.0 |
| Cc1ccc(/C=N/NC(=O)CNC(=O)COc2ccccc2)o1 | 21.4 |
| CC(=O)N(Cc1ccco1)c1nc(C(=O)Nc2ccc(Cl)cc2)c(C)s1 | 10.9 |
| CC1=CC2=NC(=O)CC(C)(C(=O)N(CC(=O)NC3CCCC3)c3ccccc3C)N2C=C1 (centres undefined) | 3.7 |
| Fc1cccc(/C=N/Nc2nc3ccccc3[nH]2)c1 | 0.9 |
| CC(=O)Nc1ccc(S(=O)(=O)Nc2nc3cc4c(cc3nc2Cl)OCCO4)cc1 | 27.2 |
| O=C(Cn1ccc(C(F)(F)F)n1)N=Nc1c(O)[nH]c2ccc(Br)cc12 | 14.2 |
| COc1cccc(/C=N/NC(=O)NC2CCCCC2)c1O | 22.3 |
| O=C(CSc1nnc(NC(=O)c2ccco2)s1)Nc1ccccc1F | 11.2 |
| CC(C)c1ccc(/C=C/C(=O)NCc2ccc(S(N)(=O)=O)cc2)cc1 | 16.6 |
| CC(C)(C)C(=O)Nc1cccc(-c2nnc(-c3cccc(NC(=O)C(C)(C)C)c3)o2)c1 | 12.0 |
| O=C(O)c1ccc(-c2nc3scc(-c4ccccc4)c3c(=O)[nH]2)cc1 | 23.3 |
| C/C(=N\N(Cc1ccccc1)c1ccccc1)c1ccncc1 | 17.5 |
| CC(C)(C)NC(=O)C(c1ccncc1)N(Cc1ccc(F)cc1)C(=O)c1ccc(-c2ccccc2)[nH]1 (centres undefined) | 4.2 |
| COC(=O)c1ccccc1NC(=O)NCc1ccccc1 | 6.2 |
| Cn1nnnc1SCC1=C(C(=O)O)N2C(=O)[C@@H](NC(=O)[C@H](O)c3ccccc3)[C@H]2SC1 | 25.7 |
| CC(C(=O)Nc1sc2c(c1C#N)CCCCC2)N1C(=O)c2ccccc2C1=O (centres undefined) | 20.2 |
| CSCCC(N=C(NS(=O)(=O)c1ccc(Br)cc1)c1ccccc1)C(=O)O (centres undefined) | 13.7 |
| CCNc1nc(NC(C)(C)C)nc(SCC(N)=O)n1 | 13.4 |
| Cc1nc2ccc(NC(=S)NCCCO)cc2nc1C | 10.2 |

Given as labelled records: 2 of the compounds above
structure: CSCCC(N=C(NS(=O)(=O)c1ccc(Br)cc1)c1ccccc1)C(=O)O (centres undefined)
  Biofilm kill mix = 13.7
structure: COc1cccc(/C=N/NC(=O)NC2CCCCC2)c1O
  Biofilm kill mix = 22.3

The listing continues:
| canonical_smiles | Biofilm kill mix |
| --- | --- |
| COC(C(=O)Nc1ccc(C(N)=O)cc1)c1ccccc1 (centres undefined) | 5.0 |
| COc1ccc(C(=O)CSc2nnc3n2CCCN3C(=O)Nc2ccccc2)cc1 | 17.5 |
| Cc1cccc(C)c1OCC(=O)Nc1nnc(C2CCCO2)s1 (centres undefined) | 12.8 |
| O=[N+]([O-])c1c(NCc2ccco2)ccc2nonc12 | 16.2 |
| Cc1cc(C)nc(Sc2ncnc3sc4c(c23)CCC4)n1 | 13.0 |
| O=C(CN(Cc1ccco1)C(=O)c1ccc(Cl)cc1)Nc1ccc(Cl)c(Cl)c1 | 13.8 |
| O=C(O)/C(=C/c1ccco1)NC(=O)c1ccccc1 | 21.5 |
| CC(C)(C)c1ccc(C(=O)N2CCCN(C(=O)c3ccc(C(C)(C)C)cc3)CC2)cc1 | 11.2 |
| CCN(C(=O)Nc1ccccc1)c1ccccc1 | 14.5 |
| O=C1C2CCCN2C(=O)N1CCN1CCN(c2ccccc2)CC1 (centres undefined) | 10.7 |
| O=C(/C=C/c1ccccc1)Nc1ccc2c(c1)C(=O)NC2=O | 8.0 |
| Cc1[nH]c2ccccc2c1-c1csc(NC(=O)CSCC(=O)O)n1 | 17.4 |
| O=C(NC(=S)NCc1ccccc1)c1ccccc1[N+](=O)[O-] | 6.7 |
| O=C(C(=O)N1CCN(c2cccc(Cl)c2)CC1)c1c[nH]c2ccccc12 | 22.1 |
| CC(C)(C)N/C=C(\C#N)S(=O)(=O)c1ccc(Br)cc1 | 23.5 |
| CCN(C(=O)CSc1ncnc2sc(C)c(C)c12)C1CCS(=O)(=O)C1 (centres undefined) | 2.5 |
| Cc1ccc(C(=O)N/C(=C\c2ccco2)C(=O)NC2CCS(=O)(=O)C2)cc1 (centres undefined) | 13.7 |
| CNC(=O)c1ccccc1-c1cn(C)c2ccccc2c1=O | 15.9 |
| CC(C)(C)[C@H]1C=C(C(=O)NC2CC2)O[C@@H](OCCCCO)C1 | 18.3 |
| Cc1cccc2sc(N(CCCN(C)C)C(=O)c3cc4ccccc4oc3=O)nc12 | 13.8 |
| COCCNC(=O)c1cn(C)c2ccccc2c1=O | 15.5 |
| NNC(=O)c1nc[nH]c1C(=O)Nc1ccccc1[N+](=O)[O-] | 0.5 |
| Cc1nnc(NC(=O)CCN2C(=O)/C(=C\c3ccccc3)SC2=S)s1 | 15.9 |
| O=C(Nc1cccc(Cl)c1Cl)C1CC(=O)N(c2ccc(Br)cc2)C1 (centres undefined) | 10.7 |
| O=c1c(-c2ccccc2)c(O)nc(SCCN2CCOCC2)n1-c1ccccc1 | 17.3 |
| COC(=O)c1sc(NC(=O)COc2ccccc2C)nc1C | 22.7 |
| Cn1c(=NC(=O)c2ccco2)sc2ccccc21 | -1.9 |
| O=c1[nH]c2ccccc2[nH]c1=O | 15.1 |
| C#CCCOC(=O)N1C2=NC(C(=O)OC)=C(C(=O)OC)[C@@H]3N(CC=C)c4ccccc4[C@]23C[C@H]1C(=O)OC | -0.8 |
| CCOC(=O)C1=C(c2ccccc2)NC(N)=NC1c1ccc(OCc2ccc(C(=O)OC)cc2)cc1 (centres undefined) | 9.2 |
| Cc1ccsc1C(=O)C1CCCN(Cc2cc(F)ccc2-n2cccn2)C1 (centres undefined) | 10.6 |
| CN1CCCN(C(=O)CC(c2ccccc2)c2ccccc2)CC1 | 14.3 |
| O=C(CN1C(=O)/C(=C\c2cccs2)SC1=S)Nc1cccc(C(=O)O)c1 | 14.9 |
| CC(/C=C/c1ccc2c(c1)OCO2)=N/NC(=O)C1COc2ccccc2O1 (centres undefined) | 20.1 |
| COc1cccc(C(=O)C2CCCN(Cc3cccc(-n4nc(C)cc4C)c3)C2)c1 (centres undefined) | 15.8 |
| COc1ccc(-c2cc(C(F)(F)F)n3nc(C(=O)N(C)Cc4ccccc4)cc3n2)cc1OC | 13.7 |
| N/C(=N\OC(=O)c1ccc2ccccc2c1)c1cccc([N+](=O)[O-])c1 | 12.7 |
| CSc1ccc(N=Nc2c(C)[nH]n(C)c2=O)cc1 | 3.5 |
| C#CCOCCOCCOCCNc1nc(N2CCOCC2)nc(N2CCN(C(=O)[C@H](Cc3cc4ccccc4[nH]3)n3cc([C@@H](N)CC(C)C)nn3)CC2)n1 | 14.7 |
| N#CCC(=O)c1sccc1-n1cccc1 | 4.7 |
| O=C(CSc1nnc(Nc2ccccc2)s1)Nc1cccc(S(=O)(=O)N2CCCCC2)c1 | 9.8 |
| CN=C(c1ccccc1)c1c(C)cccc1C | 5.4 |
| c1ccc(-c2cn3nc(-c4ccccc4)cnc3n2)cc1 | 13.5 |
| O=C1CC(c2cccc([N+](=O)[O-])c2)c2cc3c(cc2N1)CCC3 (centres undefined) | 31.3 |
| O=C(CN1CCCCC1)NCC1(c2ccccc2)CCCC1 | 21.4 |
| CC1(C)CC(=O)c2cc(C(=O)NNc3ccccc3)c(=O)n(-c3ccccc3)c2C1 | 15.8 |
| COCCN(Cc1nc(C2(c3ccc(C)cc3)CCCC2)no1)C(C)C | 13.3 |
| O=C(c1ccccc1[N+](=O)[O-])n1cnc2ccccc21 | 16.0 |
| COC(=O)c1ccc(COc2ccccc2/C=N/NC(N)=O)o1 | 10.8 |
| NC(=O)CC(NC(=O)Cc1ccc(Br)cc1)c1ccc(NCCOc2ccccc2)c([N+](=O)[O-])c1 (centres undefined) | 13.3 |
| O=C(Nc1ccccc1C(=O)NCCN1CCOCC1)c1ccc(Cl)cc1Cl | 8.1 |
| CSc1ccc(/C=N/n2c(Cc3ccc(Br)cc3)n[nH]c2=S)cc1 | 2.5 |
| COc1ccc(CCNC(=S)NC(=O)c2c(-c3ccccc3Cl)noc2C)cc1OC | 21.0 |
| COc1ccc(-n2nc([N+](=O)[O-])c(=NCCC3=CCCCC3)n2O)cc1 | 22.2 |
| CN1CCN(c2ncc3c(n2)CC(c2ccccc2F)CC3=O)CC1 (centres undefined) | 24.7 |
| Cc1cccc(OP(=O)(Nc2c(C)n(C)n(-c3ccccc3)c2=O)Oc2cccc(C)c2)c1 | 11.5 |

Following part
| canonical_smiles | Biofilm kill mix |
| --- | --- |
| O=C(c1ccccc1F)N1CCN=C1c1ccccc1 | 7.9 |
| COc1cc(O)c(C(CC(=O)N2CCCC2)c2cc(OC)c(OC)c(OC)c2)c(OC)c1 (centres undefined) | 3.5 |
| COc1cccc(/C=N/NC(=O)CCn2cnc3ccccc32)c1 | 5.7 |
| CCOc1ccc(S(=O)(=O)N/N=C(\C)C2CCCCC2)cc1 | 9.9 |
| Cc1ccc(SCC(=O)Nc2nccs2)cc1 | -23.7 |
| COc1ccc(S(=O)(=O)Nc2c(C)c(C)cc3c2ncn3C)cc1 | 19.1 |
| O=C(Nc1ccc(F)cc1)c1ccccc1Oc1ccc(C(F)(F)F)cc1[N+](=O)[O-] | 15.9 |
| COc1ccc(N2C(=O)C(CN3CCN(C)CC3)C2c2ccccc2)cc1 (centres undefined) | 11.2 |
| COc1cc(/C=N/n2cnnc2)ccc1OC(=O)c1ccco1 | 9.6 |
| Cc1nc(C#N)c(N/N=C/c2cccc(Cl)c2)o1 | 9.8 |
| Cc1cc(C)c(C)c(S(=O)(=O)N[C@@H](C)C(=O)OC(C)C(=O)NC(N)=O)c1C (some centres undefined) | 14.7 |
| CSc1ccccc1NC(=O)CN(C)CC(=O)Nc1cc(C)ccc1C | 6.0 |
| O=C(COc1ccc(/C=N/NC(=O)C(=O)N2CCCCCC2)cc1)Nc1ccccc1Cl | 16.6 |
| CCc1cc[n+](CC(=O)Nc2ccc(Cl)cc2Cl)cc1 | 9.0 |
| O=S(=O)(Nc1nccs1)c1ccc(F)cc1 | 15.7 |
| O=C(COc1ccccc1N1C(=O)C2C3C=CC(C3)C2C1=O)c1ccccc1 (centres undefined) | 27.1 |
| CCOc1ccc(OCC)c(NC(=O)CN2CCN(CC)CC2)c1 | 19.9 |
| CCN1/C(=C2\C(=O)N(C)C(=S)N2C)C=Cc2cc(C)ccc21 | 8.6 |
| COc1ccc(-c2c(C(F)(F)F)nn(C)c2NC(=O)CSCC(=O)O)cc1 | 13.1 |
| O=C(O)COc1ccccc1/C=N/NC(=O)c1cc(-c2ccc(Cl)cc2)nc2ccccc12 | 11.6 |
| Cn1c(SCCOc2ccccc2F)nc2ccccc2c1=O | 0.9 |
| CC(=O)c1c(C)nc(-c2ccccc2)nc1N | 30.4 |
| CCOc1c2ccoc2nc2c(OC)c(OC)ccc12 | -4.4 |
| O=C(O)CCCC(=O)Nc1nncs1 | 4.2 |
| Cc1cc(Nc2nn(C)c(N)c2C#N)ccc1F | 14.9 |
| Nc1nonc1C(=O)N/N=C/c1ccc(Br)o1 | 2.1 |
| O=C(Cn1cncn1)NCCC(c1ccccc1)c1ccccc1 | 17.5 |
| COc1ccc(CCNC(=O)C2CC(c3ccccc3C(F)(F)F)=NO2)cc1 (centres undefined) | 18.3 |
| O=C(c1ccc2c(c1)OCO2)N1CCC2(CC1)Oc1ccc(F)cc1C(=O)C21CC(c2ccccc2)=NO1 (centres undefined) | 6.3 |
| C/C(CC(=O)Nc1cccc2c1CCCC2)=N\NC(=O)COc1ccccc1 | -12.1 |
| CCCOc1ccc(CSCCNC(=S)Nc2ccccc2)cc1 | 4.6 |
| CCC(/C=N/NC(=O)CCCCC(=O)N/N=C/C(CC)CC)CC | 6.8 |
| Cc1sc2ncnc(Nc3ccc(O)cc3)c2c1C | 12.9 |
| Cc1ccc(S(=O)(=O)NCC(=O)NCC(=O)OCc2c(F)cccc2Cl)cc1 | 7.2 |
| C/C=C\C=C\C(=O)N1CC2(CC(c3cccc(NC(=O)CC(c4ccccc4)c4ccccc4)c3)=NO2)C[C@H]1C(N)=O (some centres undefined) | 9.1 |
| O=C(Nc1ccc2c(c1)OCCO2)c1cc(-c2ccccn2)nc2ccc(Br)cc12 | -7.5 |
| COCCCNC(=O)c1cc(C(=O)Cc2ccccc2)c[nH]1 | 8.6 |
| CC(=O)Cn1c2ccccc2n2nc(CCC(=O)O)c(=O)nc12 | 11.3 |
| Cc1nc2cc(NC(=O)NC3CC3)ccc2n1C | 6.9 |
| Cc1ccsc1/C=N/NC(=O)CNC(=O)c1ccc(S(=O)(=O)N(C)C)cc1 | 7.1 |
| Cc1ccc(NC(=O)COc2ccc(-n3cnnn3)cc2)cc1C | 10.0 |
| O=C(O)COCC(=O)NCc1nc(-c2ccc(C(F)(F)F)cc2)no1 | 15.0 |

These rows are one share of the data; rates above refer to the full screens.
